Screens deposited in PubChem by National Center for Advancing Translational Sciences (NCATS).
D2 ag – agonists of human D2 dopamine receptor (beta-arrestin). P14416. DiscoveRx PathHunter D2 beta-arrestin, luminescence, 90 min; 100% = 57 uM dopamine signal. activation, % (no concentration beside the values). 360,000 compounds, 0.084% hits. AID 624465; in the data active = activation above about 40%; inconclusive = about 15% to 40%; inactive = below about 15%; note: compound concentration not given in the record; the text of the record calls up to 30% inactive
Target sequence (P14416 whole entry, looked up): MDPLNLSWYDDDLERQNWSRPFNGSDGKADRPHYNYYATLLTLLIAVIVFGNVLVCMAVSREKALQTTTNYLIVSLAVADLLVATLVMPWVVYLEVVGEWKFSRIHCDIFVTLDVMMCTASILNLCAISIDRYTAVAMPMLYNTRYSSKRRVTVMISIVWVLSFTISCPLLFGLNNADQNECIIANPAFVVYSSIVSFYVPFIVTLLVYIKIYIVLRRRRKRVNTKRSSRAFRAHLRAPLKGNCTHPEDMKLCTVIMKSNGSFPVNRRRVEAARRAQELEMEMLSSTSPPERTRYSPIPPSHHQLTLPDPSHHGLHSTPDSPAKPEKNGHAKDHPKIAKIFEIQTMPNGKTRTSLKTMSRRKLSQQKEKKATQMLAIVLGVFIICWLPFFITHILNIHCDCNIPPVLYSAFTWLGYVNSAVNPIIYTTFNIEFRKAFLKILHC
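DiscoveRx PathHunter D2 beta-arrestin cells (2,100/well) attached overnight, then compound-stimulated 90 min at 37 C in HBSS/10 mM HEPES/0.1% Tween-20 buffer; beta-galactosidase complementation read by luminescence after 1 h at ambient temperature. Dopamine 57 uM final (EC100) as control.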
TRPML1 inh – human mucolipin-1 channel inhibition | activity change, negative = inhibition, % (no concentration beside the values) | Q9GZU1 | 390,000 compounds, 0.02% hits | TRPML1-inducible cells, Ca2+ dye fluorescence, FDSS; stronger effect = lower value; inhibition of EC80 agonist-evoked calcium signal; in the data active means activity change below about -50%; inconclusive means about -30% to -50%; inactive means above about -30%;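 note: stimulus is agonist 54-4 at its EC80 concentration; % is set by controls: 0 for no effect and ±100 for the full control effect; compound concentration not given in the record; the text of the record puts the active cut at -80%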
Target sequence (Q9GZU1 whole entry, looked up): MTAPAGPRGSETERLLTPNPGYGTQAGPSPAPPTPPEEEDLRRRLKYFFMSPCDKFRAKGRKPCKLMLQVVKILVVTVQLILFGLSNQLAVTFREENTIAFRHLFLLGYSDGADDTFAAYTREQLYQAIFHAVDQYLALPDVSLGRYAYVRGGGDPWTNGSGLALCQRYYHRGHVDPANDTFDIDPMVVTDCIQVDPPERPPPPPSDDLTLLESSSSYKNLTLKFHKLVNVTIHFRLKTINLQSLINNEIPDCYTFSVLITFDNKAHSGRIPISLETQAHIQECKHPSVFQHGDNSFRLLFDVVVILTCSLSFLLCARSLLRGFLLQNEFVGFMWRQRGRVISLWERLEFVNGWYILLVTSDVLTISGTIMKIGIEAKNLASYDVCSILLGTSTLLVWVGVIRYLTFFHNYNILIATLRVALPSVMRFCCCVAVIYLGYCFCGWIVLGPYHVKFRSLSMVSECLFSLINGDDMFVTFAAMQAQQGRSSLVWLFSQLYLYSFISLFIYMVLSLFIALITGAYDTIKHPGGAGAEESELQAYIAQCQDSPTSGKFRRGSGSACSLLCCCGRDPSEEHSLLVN
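Tet-induced TRPML1-DL cells loaded with Ca8 no-wash calcium dye were read kinetically on FDSS. Compound addition was followed by EC80 agonist 54-4 (4 uM final); inhibition was read over 110 s.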
Six1-Eya2 inh – inhibitors of human Six1/Eya2 interaction; Q15475+O00167; AlphaScreen GST-Six1/His-Eya2 binding, biochemical; stronger effect = lower value; control for the full effect not named in the record; activity change, % (test concentration not listed); 360,000 compounds, 0.56% hits; AID 651725; in the data active = activity change below about -65%; inconclusive = about -30% to -65%; inactive = above about -30%; note: % is set by controls: 0 for no effect and ±100 for the full control effect
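Compounds are tested against tagged Six1 and Eya2 proteins bridged by glutathione donor and nickel acceptor beads; after a one-hour incubation at 37 °C without light, AlphaScreen emission is recorded.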
CtBP-E1A inh – blocks the CtBP interaction with E1A; AlphaScreen GST-E1A/His-CtBP binding, 1536-well; stronger effect = lower value; control for the full effect not named in the record; activity change, % (test concentration not listed); 340,000 compounds, 0.49% hits; AID 651724; in the data active means activity change below about -65%; inconclusive means about -30% to -65%; inactive means above about -30%; note: % is set by controls: 0 for no effect and ±100 for the full control effect
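In 5 uL wells, 23 nL compound meets equimolar GST-E1A and His-CtBP (5X stock 125 nM each) for 2 h, 37 °C. Beads (5X, 50 ug/mL) then 1 h, 37 °C, dark.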
TRPML1 agonist – activates the human TRPML1 channel; TRPML1-expressing cells, Ca2+ dye fluorescence, FDSS; host cell line not named in the record; reference of the full effect not given here; 410,000 compounds, 0.12% hits; AID 624414; activation, % (no concentration beside the values); in the data active = activation above about 50%; inconclusive = about 30% to 50%; inactive = below about 30%; note: 0% is about no effect; the text of the record puts the active cut at 80%
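Agonist activity was taken from a 110 s kinetic Ca2+ dye read on the FDSS after pinning compounds onto TRPML1-DL cells. The cells were seeded at 1,500/well with Tet inducer, incubated about 16 h, then dye-loaded at room temperature.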
PINK1 modulator – changes PINK1 expression; PINK1 immunofluorescence, high-content cytometry, 24 h; 410,000 compounds, 0.2% hits; Potency, µM (doses to about 76.6 µM), for the others: at the top dose activation (PINK1 increase), actives largely listed as activators; AID 624263; active = well fitted activation curve with a large enough effect; inconclusive = small, poorly fitted or top-dose-only effect; inactive = flat fitted curve, though single readings scatter; cell line not stated here;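 note: potency is the fitted concentration of half-maximal effect; % of control where 0% means no effect; nearly all actives have a fitted effect of over 65% in size; a mitochondrial uncoupler was the plate control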
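Measures PINK1 amount and localization on or inside mitochondria by immunofluorescence. Stable cells get compounds at 5 concentrations for 24 hours before fixation and staining; CCCP controls included.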
Numbers without * were called inactive; ? = inconclusive; . = no result given; & = joins results of further samples; [ ] = another dose, or the depositor's remark.

Below each compound: D2 ag	TRPML1 inh	Six1-Eya2 inh	CtBP-E1A inh	TRPML1 agonist	PINK1 modulator
COc1ccc(CN2C(=O)c3ccccc3C2C(=O)NCCc2ccccc2)c(OC)c1 (stereo unspecified)
→ -3.6	18&11	-1	-1	1.5&3.0	-0.1%&4.1%
Cc1ccc(N2C(=O)CC(Nc3ccccc3)C2=O)cc1 (stereo unspecified)
→ -0.4	14	3	5	-0.2	1.0%[38.3 µM]
CCOc1ccc(NC(=O)c2ccc3[nH]c(C)cc(=O)c3c2)cc1
→ .	-8	.	.	-0.5	0.4%
CSc1ccccc1NC(=O)COC(=O)c1c[nH]c(=O)[nH]c1=O
→ -1.8	.	3	-10	.	1.3%
Cc1ccnc(NC(=O)c2cccc(S(=O)(=O)N3CCCC3)c2)c1
→ -1.6	24	-1	5	-0.3	-0.2%
Cc1cccc(/C=N/NC(=O)c2ccccc2OCc2cccc(Br)c2)n1
→ -0.6	-2	-15	-6	2.9	6.7%
CCOc1ccc(NC(=O)CSc2oc(-c3cccs3)nc2S(=O)(=O)c2ccc(C)cc2)cc1
→ .	-13	.	.	-0.9	0.6%
O=[N+]([O-])c1ccc(Cl)c(S(=O)(=O)NCC2CCCO2)c1 (stereo unspecified)
→ -5.8	18	-4	3	-0.5	-0.2%
Cc1cc(NC(=O)CCC(=O)N(c2ccccc2)C(C(=O)NC2CCCC2)c2ccccc2C)no1 (stereo unspecified)
→ -0.9	-8	15	8	0.2	0.6%
COc1ccc(CNC(=O)c2ccc3nc(C)c(N(C)Cc4ccc(NC(C)=O)cc4)n3c2)cc1
→ 0.5	.	0	-1	-0.6	2.1%
CC1(C)NC(=O)N(CCCCSc2ccc(Cl)cc2)C1=O
→ 2.6	-11	4	-5	1.4	0.1%
COCCNC(=S)N/N=C(\C)c1cc2ccccc2o1
→ -3.0	-6	-10	0	-0.3	-2.4%
CCOCCCNC(=O)Cc1ccc(-n2c(CC)nc3cccnc32)cc1
→ 3.0	-16	1	8	1.5	-2.5%
O=C(COC(=O)C1COc2ccccc2O1)Nc1ccc2c(c1)CCC2 (stereo unspecified)
→ -0.4	-13	-3	2	1.5	1.4%
COc1cc(C#N)ccc1OCC(=O)N1CCc2ccccc2C1
→ -6.2	-5	7	2	-0.2	1.4%
O=C(NCC(=O)N1CCCC(C(F)(F)F)C1)c1ccc(Br)o1 (stereo unspecified)
→ 4.0	-14	4	5	0.0	-1.3%
CCOc1ccc(CCNC(=O)c2nnn(CC(=O)Nc3c(C)cc(C)cc3C)c2N)cc1OCC
→ -2.1	0	3	-2	0.2	0.3%
Cc1cccc(C(=O)NCc2nnc(SCc3ccc(F)cc3)n2C)c1
→ 0.6	-12	-9	.	-0.2	0.4%
CC(C)=CC(=O)Nc1ccc(Br)cc1
→ -1.3	-17	-2	-7	0.7	.
CC(C)Cn1nc(C(=O)Nc2cccc(S(=O)(=O)N3CCCC3)c2)c2ccccc2c1=O
→ 0.6	41	-4	-23	4.0	-0.9%

Additional entries
Below each compound: D2 ag	TRPML1 inh	Six1-Eya2 inh	CtBP-E1A inh	TRPML1 agonist	PINK1 modulator
CC(=O)Nc1ccc(CN2C(=O)C(C)ON=C2c2ccccc2-c2ccco2)cc1 (stereo unspecified)
→ 3.2	.	-8	-2	-0.7	1.7%
Cc1ccc(CN2CC(C(=O)O)CC2=O)cc1 (stereo unspecified)
→ -0.6	-10	-3	-8	0.3	.
CCCCOc1cccc(C(=O)N(Cc2ccc(Br)o2)C2CCS(=O)(=O)C2)c1 (stereo unspecified)
→ .	0	.	.	2.0	0.2%
O=C(Nc1cccc(-c2cn3cccnc3n2)c1)Nc1ccccc1F
→ 3.8	2	?	0	-0.7	1.7%
O=c1oc(CCO)cc2ccc(-c3ccc4[nH]ccc4c3)cc12
→ -0.9	18	5	-4	0.0	-0.6%
CCOC(=O)C(CCCCCCP(=O)(c1ccccc1)c1ccccc1)NC(C)=O (stereo unspecified)
→ -3.0	-3	14	7	-0.6	0.6%
CC(=O)N(C)[C@H]1C[C@@H](c2ccccc2)N(C(C)=O)C[C@H]1CO
→ -13	.	10	-3	-0.6	0.8%
CCN(CC)CCCN1C(=O)C(O)=C(C(=O)c2ccco2)C1c1ccc(OC(C)C)cc1 (stereo unspecified)
→ -2.5	24	11	-3	0.0	-1.0%
CCN1CCN(Cc2c(O)ccc3c(=O)c(Oc4ccccc4Cl)c(C(F)(F)F)oc23)CC1
→ .	-18	.	.	0.5	-3.2%
CSc1cccc(CN2CCC(CCC(=O)NC3CC3)CC2)c1
→ -1.1	-11	9	.	-0.4	-0.6%
Cc1cc(C)cc(-n2ccnc2SCC(=O)Nc2nc3ccccc3s2)c1
→ .	-6	.	.	1.8	-3.8%
Cc1ccc(S(=O)(=O)N2CCN(CC(=O)NC(=O)NCc3ccccc3)CC2)cc1C
→ -3.2	-1	-1	2	-0.3	1.7%
FC(F)(F)c1ccc(N2CCN(c3cc(-c4ccccc4)nc4ncnn34)CC2)nc1
→ 2.6	-24	-1	7	0.8	.
CC(C)(C)c1ccc(NC(=O)CSc2n[nH]c(=O)n2C2CC2)cc1
→ 4.0	-9	5	.	0.3	5.2%
CCn1cc(CN2CCC(n3nccc3NC(=O)Cc3ccccc3)CC2)cn1
→ -2.4	-4	-1	-9	0.2	-0.4%
COc1cccc(C(=O)COC(=O)C(C)N2C(=O)C3C4C=CC(C4)C3C2=O)c1 (stereo unspecified)
→ -2.0	-23	-3	8	-1.0	-3.2%
NC(=O)c1ccc(CN2CCc3ccccc3C2)cc1
→ -2.5	8	7	8	0.5	-0.5%
COc1ccc(CCNC(=O)CS(=O)(=O)Cc2nc(-c3cccc(Cl)c3)oc2C)cc1OC
→ .	-13	.	.	1.3	1.5%
Cn1c(=O)[nH]c(=O)c2c1nc(NCCCO)n2Cc1ccc(F)cc1
→ -7.9	-4	-3	4	2.7	-1.2%
Cc1ccc(C)c(N2CCN(S(=O)(=O)c3ccc4c(c3)n(C)c(=O)c(=O)n4C)CC2)c1
→ .	20	.	.	-0.2	3.3%

Further compounds.
Below each compound: D2 ag	TRPML1 inh	Six1-Eya2 inh	CtBP-E1A inh	TRPML1 agonist	PINK1 modulator
COc1ccc(CC(=O)OCC(=O)Nc2cccc(Cl)c2)cc1
→ -8.2	5	3	2	2.1	-0.8%
COc1cccc(CNC(=O)CCCn2nc(C)c3c(C)n(-c4ccc(C)cc4)nc3c2=O)c1OC
→ -3.0	2&-30	3	3	-0.9&1.2	7.8%&1.1%
CC(C)CCNCC1OCc2ccccc2CO1
→ -7.3	3	7	-2	0.2	0.6%
O=C(Nc1ccnn1C1CCN(Cc2c(F)cccc2Cl)CC1)C1CCCC1
→ -3.2	-6	-1	9	-0.6	0.4%
O=C(C1CCN(S(=O)(=O)c2ccc(Cl)cc2)CC1)N1CCC1
→ -2.3	-10	13	1	0.3	-0.5%
CCc1ccccc1NC(=O)Cc1c(C(=O)O)[nH]c2ccc(Cl)cc12
→ .	7	.	.	-0.6	0.1%
O=C(CCS(=O)(=O)c1ccccc1)Nc1nncs1
→ 4.7	0	1	10	-0.4	4.2%
CC(=O)COC(=O)c1cccc(N2C(=O)C3C4C=CC(C4)C3C2=O)c1 (stereo unspecified)
→ 0.7	-26	1	1	0.7	4.1%
CCCCNC(=O)c1cc(-c2ccc3c(c2)OCO3)on1
→ -3.8	0	6	6	0.8	0.4%
Nn1cnnc1N/N=C/c1ccc(Cl)cc1Cl
→ ?	36	-3	-4	1.4	2.6%
COC(=O)c1c(C)[nH]c(C)c1C(C)=O
→ 2.2	41	11	0	0.1	0.1%
COc1cccc(CC(=O)N2CCC(CCC(=O)Nc3cccc(OC)c3)CC2)c1
→ 2.2	0	-23	?	-0.9	0.8%
O=C1CCNc2c(Cl)cccc21
→ 0.3	0	9	2	0.1	0.7%
CN(CC(=O)NCCc1ccc(S(N)(=O)=O)cc1)c1ccccc1
→ 0.8	12	5	0	0.6	6.3%
COc1cc(/C=N/OCC(=O)NC2CCCCC2)ccc1OCc1ccccc1
→ ?	-2	2	4	2.9	11%
CC(Cc1n[nH]c(=S)n1N)c1ccccc1 (stereo unspecified)
→ -0.9	1	2	6	-1.4	1.3%
C=C(C)CN(CC)C(=O)CC1C(=O)NCCN1Cc1c(F)cccc1Cl (stereo unspecified)
→ -1.2	8	-1	.	0.1	0.4%
Cc1ccc(S(=O)(=O)CCOC(=O)CNC(=O)OCc2ccccc2)cc1
→ -4.2	1	-1	1	-0.9	0.2%
CCOC(=O)C(C(=O)OCC)N(C#N)c1nc(C)cc(C)n1
→ -1.2	3	-1	7	-0.1	1.2%[38.3 µM]
O=C(CSc1nnc(-c2ccccc2)o1)NC(=O)Cc1ccccc1
→ -3.3	26	4	1	0.6	0.6%

One compound at a time, as listed above. Order of values: D2 ag	TRPML1 inh	Six1-Eya2 inh	CtBP-E1A inh	TRPML1 agonist	PINK1 modulator
Profile of C=C(C)CN(CC)C(=O)CC1C(=O)NCCN1Cc1c(F)cccc1Cl (stereo unspecified) : -1.2	8	-1	.	0.1	0.4%
Profile of COC(=O)c1c(C)[nH]c(C)c1C(C)=O : 2.2	41	11	0	0.1	0.1%
Profile of COc1cc(/C=N/OCC(=O)NC2CCCCC2)ccc1OCc1ccccc1 : ?	-2	2	4	2.9	11%

Remaining list, next part:
Below each compound: D2 ag	TRPML1 inh	Six1-Eya2 inh	CtBP-E1A inh	TRPML1 agonist	PINK1 modulator
COc1ccc(CNC(=O)/C(C#N)=C/c2cccc(OC)c2OC)cc1
→ -2.4	1	4	10	-0.1	1.8%
CCCNC(=O)C1(C)CCN(C(=O)C2(c3ccc(Cl)cc3)CCCC2)C1 (stereo unspecified)
→ -1.5	.	4	9	-1.0	1.4%
CCN(CC(=O)Nc1ccccc1OC)C(=O)C1CC2C=CC1C2 (stereo unspecified)
→ 0.4	-5	3	-4	-0.1	2.2%[38.3 µM]
COc1ccc(S(=O)(=O)N2c3ccccc3OCC2C(C)(C)C)cc1 (stereo unspecified)
→ 3.8	5	0	5	-0.4	0.2%
CN(C)c1ncnc2c1C(c1ccccc1)C(C)(C)O2 (stereo unspecified)
→ 1.0	-11	-2	5	0.3	-5.6%
COC(=O)c1sc(NC(=O)c2cc3c(s2)CCCC3)nc1C
→ -1.1	-1	2	2	2.0	?
CC(C/C=N/NC(=O)COc1cc(Cl)ccc1Cl)c1ccccc1 (stereo unspecified)
→ -2.9	15	2	5	0.9	-0.3%
Cc1ccc(C)c(N(CC(=O)NCc2ccco2)C(=O)CNS(=O)(=O)c2ccc(F)cc2)c1
→ 8.5	-3	-4	-14	1.0	-1.8%
Cn1cnnc1SCC(=O)c1ccc2c(c1)NC(=O)CO2
→ -3.9	-13	0	4	0.2	0.2%
COc1ccc(S(=O)(=O)N2CCN(Cc3nc4ccc(C)cc4o3)CC2)cc1Cl
→ .	-1	.	.	1.1	-0.2%
Cc1ccc(CSc2nnc3c(n2)OC2(Nc4ccccc4-3)C(=O)Nc3ccc(F)cc32)cc1 (stereo unspecified)
→ -14	5	-11	11	-0.6	-2.3%[38.3 µM]
CCN(c1ccccc1)S(=O)(=O)c1ccc2ccccc2c1
→ 0.9	6	16	4	-0.1	5.7%

Rows are unselected, and some 1% of all compounds hit somewhere here.
